miR-21 reporter = qHTS Assay for Modulators of miRNAs and/orActivators of miR-21. HeLa miR-21 FLuc reporter, luciferase, 48 h. Potency, µM (series often up to 38.3 µM), for the others: at the highest dose reporter change, positive = more light. 340,000 tested, under 10 active; active = well fitted rising curve with a large enough effect; inconclusive = small, poorly fitted or top-dose-only effect; inactive = no such curve, though single readings can be large or run the other way;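 further: % of control where 0% means no effect; miR-21 action dims this reporter so a rising signal means less miR-21 action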
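HeLa cells stably expressing CMV-driven firefly luciferase with a downstream miR-21 binding sequence, endogenously expressing miR-21, were treated with titrations (up to about 40uM final) for 48 hours at 37 degree Celsius. Luciferase luminescence was read after lysis.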
Rango dissoc inh = qHTS Assay for Inhibitors of RanGTP induced Rango (Ran-regulated importin-beta cargo) - Importin beta complex dissociation | AID 540253, 2011 | actives 0.071% (n = 340,000) | Potency, µM (titrated, usually from 46.1 µM), inactives show at the top dose activity change, negative = inhibition | Biochemical FRET Rango-importin beta, RanGTP-induced dissociation | Snurportin-1 (Homo sapiens) + GTP-binding nuclear protein Ran (Homo sapiens) + Importin …; active means falling FRET ratio curve, often poorly fitted, with flat reads before Ran was added; inconclusive means other falling curves, or compound fluorescence or quenching; inactive means flat or rising ratio curve;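 further: potency means the concentration at half of the fitted maximal effect; % of control where 0% means no effect; nearly all actives have a fitted effect of over 45% in size; -100% = wells without RanGTP and RCC1; the record marks most hits as doubtful in a second field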
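Recombinant Rango FRET biosensor (EYFP–snurportin 1 IBB–cerulean CFP10) at 0.1 uM premixed with 0.25 uM importin beta in PBS, 1 mM DTT, 0.02% Tween-20, 0.1% BSA. Compound added 5 min; RanGTP-RCC1 (0.6 uM Ran, 2 mM GTP, 0.2 uM RCC1) then triggers release, read at 45 min.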
Rango-impB inh = qHTS Assay for Inhibitors of Rango (Ran-regulated importin-beta cargo) - Importin beta complex formation | actives 0.031% (n = 340,000) | Rango CFP/YFP FRET sensor + importin beta, 45 min | AID 540263, 2011 | Potency, µM (doses to about 92.2 µM), for inactives: at the top dose inhibition of complex formation; active = rising FRET ratio curve, often small or poorly fitted; inconclusive = mostly compound fluorescence or quenching in the first reads; inactive = flat curves in all reads;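 further: potency means the concentration at half of the fitted maximal effect; 0% = DMSO wells and 100% = buffer wells lacking importin beta; nearly all actives have a fitted effect of over 15% in size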
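Inhibition scored from the CFP 486 nm/YFP 530 nm FRET ratio 45 min after adding 0.125 microM importin beta to 50 nM Rango biosensor preincubated 5 min with compound (room temperature, PBS with DTT, Tween-20, BSA). No-importin wells as positive control.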
GLA inh pH 4.5 = qHTS Assay for Inhibitors of Human alpha-Galactosidase at pH 4.5; purified enzyme, 4-MU-alpha-Gal fluorescence, pH 4.5; 230,000 tested, under 10 active; activity change, negative = inhibition, % at 105 µM; AID 1467, 2008; Alpha-galactosidase A (Homo sapiens), P06280; inconclusive = small, poorly fitted or top-dose-only inhibition, or a rising curve; inactive = flat fitted curve, though single readings scatter; no compound was filed as active;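 further: 0% = full activity with enzyme and -100% = basal without enzyme; dose as in the result columns while the protocol names 77 µM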
Target sequence (P06280 whole entry, looked up): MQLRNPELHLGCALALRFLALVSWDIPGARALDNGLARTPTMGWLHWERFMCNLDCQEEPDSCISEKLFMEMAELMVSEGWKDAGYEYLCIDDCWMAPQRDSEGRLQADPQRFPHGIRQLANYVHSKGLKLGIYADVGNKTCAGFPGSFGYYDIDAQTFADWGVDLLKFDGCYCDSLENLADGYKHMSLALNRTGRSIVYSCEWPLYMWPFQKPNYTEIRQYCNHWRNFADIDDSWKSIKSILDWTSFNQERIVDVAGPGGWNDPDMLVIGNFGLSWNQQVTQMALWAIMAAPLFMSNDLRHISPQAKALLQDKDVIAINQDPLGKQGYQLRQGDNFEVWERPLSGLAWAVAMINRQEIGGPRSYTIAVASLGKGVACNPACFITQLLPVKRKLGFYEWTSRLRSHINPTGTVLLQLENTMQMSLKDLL
* = called active by the depositor; ? = inconclusive; . = no result given; & = joins results of further samples; [ ] = another dose, or the depositor's remark. These rows are one share of the data; the hit share may differ from the screen's.

SMILES	miR-21 reporter	Rango dissoc inh	Rango-impB inh	GLA inh pH 4.5
O=[N+]([O-])c1cc(C(F)(F)F)ccc1NC1CCN(Cc2ccccc2)CC1	4.7%	1.6%	0.0%	-1.8
C/C=C/C(=O)OCC(=O)Nc1cccc(F)c1	4.2%	5.3%	-2.6%	14.3
O=C(Nc1ccon1)c1ccc(Br)o1	-9.1%	1.7%	2.1%	-2.7
NS(=O)(=O)c1cccc(NC(=O)CCS(=O)(=O)c2ccc(Cl)cc2)c1	-1.1%	-12.9%	1.9%	10.1
COc1ccc(NC(=O)C2CCCN(S(=O)(=O)c3ccc4[nH]c(=O)ccc4c3)C2)cc1 (stereo not given)	-2.7%	1.1%	0.4%	.
Nc1ccc(N2CCN(c3ccc(Cl)c(Cl)c3)CC2)cc1	?	1.9%	0.0%	-9.1
CCCCc1ccc(-c2csc(/C(C#N)=C\c3ccc(C)o3)n2)cc1	-3.9%	?	?	-8.5
Cc1cc(C)cc(N(C(=O)c2cccs2)C2C=CS(=O)(=O)C2)c1 (stereo not given)	-4.0%	9.8%	0.4%	1.2
O=CN1CCCN(Cc2nc(-c3cccc(Cl)c3)no2)CC1	-29.6%	21.3%	-0.5%	0.3
Cc1ccc(C(=O)NCCn2cc(SCC(=O)Nc3cc(C)on3)c3ccccc32)cc1	11.8%	-18.9%	-1.1%	-3.6
COc1cc(NC(=S)NCCCN2CCOCC2)cc(OC)c1	-0.3%	-4.0%	?	-2.6
O=C(CN1C(=O)/C(=C/c2cccc(Br)c2)SC1=S)NCCCN1CCOCC1	0.2%	?	0.1%	.
NS(=O)(=O)c1cccc(NC(=O)CCSc2ccccc2Cl)c1	-68.6%	8.5%	-4.2%	-13.3
CN(CC(=O)Nc1cccc(F)c1)C(=O)CCCNC(=O)c1ccc(Cl)cc1	.	0.9%	1.7%	.
COc1ccc(C)cc1S(=O)(=O)N1CCCC(C(=O)N2CCOCC2)C1 (stereo not given)	-0.1%	0.1%	0.2%	.
COc1cccc(CN(C(=O)/C=C/c2ccco2)C2CCS(=O)(=O)C2)c1 (stereo not given)	-3.8%	?	-0.1%	.
Cc1ccccc1/C=C/C(=O)N1CCOCC1	-34.3%	0.6%	4.1%	4.5
CCCN(/C=N/c1sc2c(c1C#N)CCCCC2)CCC	-23.4%	-4.8%	?	0.2
CCCn1c(SCC(=O)N2CCCc3ccccc32)nnc1-c1ccco1	-4.3%	-4.8%	0.0%	-9.3
O=C(Nc1ccc2c(c1)C(=O)NC2=O)c1ccccc1	-3.0%	14.2%	-5.7%	.
O=C(Nc1ccc2oc(-c3ccccc3F)nc2c1)c1ccccc1F	-29.8%	-11.9%	-2.2%	.
Cc1c(CNC(=O)c2cnn3c2NC(c2ccccc2)CC3C(F)(F)F)cnn1C (stereo not given)	-14.3%	?	-1.7%	5.2
C=Cc1ncc(OC)c2c1[nH]c1ccccc12	.	0.5%	-3.0%	.
CCOc1ccccc1NS(=O)(=O)c1cc2c3c(c1)C(C)C(=O)N3CCC2 (stereo not given)	0.5%	-8.3%	2.2%	.
CN(C)c1ccc(CNC2C3CC4CC(C3)CC2C4)cc1 (stereo not given)	-1.5%	48.0%	0.7%	-3.6
COc1ccc(OCC(=O)N2CCN(C(=O)COc3ccc(Br)cc3)CC2)cc1	-0.2%	-13.0%	0.0%	-9.9
c1csc(Cn2c(-c3cccs3)nc3ccccc32)c1	2.0%	-5.4%	5.8%	-8.8
O=C(COC(=O)c1ccco1)NCC1CCCO1 (stereo not given)	-1.2%	5.3%	-0.2%	-12.1
COc1cc([C@H]2OC[C@H]3[C@@H]2CO[C@@H]3c2ccc(O[C@H]3O[C@H](CO)[C@@H](O)[C@H](O)[C@H]3O)c(OC)c2)ccc1O[C@@H]1O[C@H](CO)[C@@H](O)[C@H](O)[C@H]1O	.	6.8%	2.0%	.
Cc1cccc(CCNC(=O)C2CCCN(c3ncnc4c3nc3n4CCCCC3)C2)c1 (stereo not given)	0.0%	-0.2%	-2.5%	.
COc1ccc(-c2coc(CCC(=O)N3CCN(c4cc(C)ccc4C)CC3)n2)cc1	.	-0.1%	2.5%	.
Cc1onc(-c2ccccc2)c1C(=O)NC(C)C1CCCO1 (stereo not given)	0.3%	10.0%	-1.9%	0.7
C=CCN1C(=O)CN=C1Nc1cc(C)cc(C)c1	-1.7%	2.7%	1.9%	-9.0
Cc1ccc(C(=O)N2CCN(c3ccc([N+](=O)[O-])cc3-n3cccc3)CC2)cc1	17.3%	-8.9%	3.3%	-6.7
COc1cccc(-c2csc3nnc(SCC(=O)c4ccc(NC(C)=O)cc4)n23)c1	-4.8%	-5.5%	-4.7%	6.2
CC12CC3(C)CC(C)(C1)CC(C(N)=O)(C2)C3	-0.4%	-0.5%	-3.4%	1.1
O=C(c1ccc(F)cc1)c1ccc(N2CCCCC2)cc1	-70.3%	-11.1%	?	.
CCOC(=O)Nc1nc(-c2ccc(F)cc2F)cs1	-47.5%	-0.4%	2.2%	-0.5
COc1ccc(/C=C2\SC(=S)N(CCCC(=O)NC3CCCC3)C2=O)cc1OC	.	-14.6%	?	.
O=C(CCc1nc(-c2ccccn2)no1)NCc1ccc2c(c1)OCO2	-2.6%	6.4%	-2.5%	-12.1
COc1ccccc1NC(=O)Nc1ccc(N2CCOCC2)cc1	-62.9%	0.7%	3.3%	5.8[21.1 µM]
Cc1ccn2cc(CNS(=O)(=O)c3ccc4ccccc4c3)nc2c1	-2.9%	-7.4%	0.7%	.
Nc1cc(Nc2ccc(Br)cc2)nc(N)n1	-44.4%	?	?	5.8
O=C(CCc1nnc(CCCc2ccccc2)o1)NCCc1ccccc1	-14.2%	-23.9%	3.6%	-1.3
CN1CCN(C(=O)c2ccccc2NC(=O)c2ccccc2Br)CC1	-2.3%	8.8%	2.7%	.
COc1ccc(C(=O)Nc2ccc3c(c2)nc(CN2CCCC2)n3C)cc1	-21.0%	-1.0%	-7.2%	-5.5
CC(C)OP(=O)(OC(C)C)C(Nc1ccccc1)c1ccccc1C(F)(F)F (stereo not given)	-3.7%	0.8%	0.9%	-14.9
O=C(CSc1nnnn1C1CCCC1)Nc1ccccc1F	-20.9%	-1.8%	-2.8%	0.3
Cc1ccc(-n2nnnc2SCC(=O)NCC2(N3CCOCC3)CCCCC2)cc1	.	-16.3%	2.2%	.
Cc1ccc(N(C)C(=O)n2cnc3ccccc32)cc1	0.6%	0.8%	0.2%	-6.6
COc1ccc(OC)c(NC(=S)N(CCc2c(C)[nH]c3ccccc23)Cc2cccs2)c1	5.0%	-16.3%	?	-5.5
CCCCOC(=O)C(C#N)c1nc2ccccc2nc1N1CCN(Cc2ccc3c(c2)OCO3)CC1 (stereo not given)	1.1%	-20.0%	?	3.6
COc1ccccc1-c1sc2cc3c(cc2c1C#Cc1cncn1C)OCO3	.	3.8%	1.0%	.
O=C(CCn1nnc2ccccc21)N1CCN(c2ccccc2)CC1	-41.8%	3.3%	0.3%	-13.7
Cc1c(C(=O)NC(=S)NCc2cccnc2)oc2ccccc12	-1.9%	-2.0%	-0.5%	-4.2
CCc1nnc(NC(=O)c2ccc(S(=O)(=O)N(CC)Cc3ccccc3)cc2)o1	28.1%	-9.6%	-3.2%	-0.3
C(=C\c1ccco1)/C1=NN(c2ccccc2)C(c2ccco2)C1 (stereo not given)	-24.1%	?	?	23.0
CC(=O)NC(c1cccs1)c1cc(Cl)c2ccccc2c1O (stereo not given)	.	22.9%	-1.5%	.
Cc1ccc(S(=O)(=O)c2c(C)cc(C)nc2Oc2cccc(C(F)(F)F)c2)cc1	-4.4%	15.7%	1.7%	-8.2
C=CCC(CC=C)(NC(=O)c1ccccc1)c1ccccc1	-5.6%	-1.1%	0.5%	-4.5

(further entries)
SMILES	miR-21 reporter	Rango dissoc inh	Rango-impB inh	GLA inh pH 4.5
CNc1nccc(-c2ccc(Cl)cc2)c1C#N	-16.9%	9.2%	0.8%	-2.2
CCOC(=O)C1=C(C)N(c2ccccc2)C(=O)/C1=C\c1ccco1	-2.9%	-9.4%	1.7%	-0.2
S=C(NC1CCCC1)N1CCN(c2ccc(Cl)cc2)CC1	7.6%	0.6%	2.7%	-12.8
COCCOC(=O)C1=C(C)N(c2ccccc2)C(=S)NC1c1ccccc1C(F)(F)F (stereo not given)	2.8%	-4.3%	0.1%	-5.7
COc1ccccc1OCC(=O)Nc1ccc(S(=O)(=O)N2CCOCC2)cc1	-0.3%	0.2%	-1.3%	.
CCOC(=O)Cc1nnc(NC(=O)CSc2ccc(Cl)cc2)s1	-4.5%	-15.9%	?	1.4
CCCCNC(c1ccccc1)c1ccncc1 (stereo not given)	1.8%	3.1%	-16.2%	0.7
COc1ccc2c(=O)c3c(=O)n(-c4ccc(C)cc4)c(-c4ccccc4)nc3oc2c1	-1.0%	.	.	1.1
Cc1ccc(N(C(=O)CCC(=O)Nc2nccs2)C(C(=O)NC(C)(C)C)c2ccc(O)cc2)cc1 (stereo not given)	4.7%	-18.0%	-0.3%	7.3
CN(C)C(=O)CN(c1ccc2c(c1)OCO2)S(C)(=O)=O	1.7%	-8.3%	-1.2%	-1.7
Cc1nn(C2CCS(=O)(=O)C2)c(C)c1CN(C)C(=O)c1ccccc1 (stereo not given)	.	-9.9%	3.9%	.
C=CCNc1nc(-c2cccs2)c(CC(=O)O)s1	-0.7%	-29.3%	?	-0.8
Cn1c2c(c(=O)n(C)c1=O)C(c1ccccc1Cl)CC(=O)N2 (stereo not given)	-7.8%	5.7%	5.3%	2.3
COc1ccc(/C=C2\CCn3c2nc2cc(C(=O)O)ccc2c3=O)cc1O	-2.3%	-5.5%	0.4%	-0.3
CC(C)OCCCn1c(=N)c(S(=O)(=O)c2ccccc2)cc2c(=O)n3ccccc3nc21	-0.1%	?	?	.
Cc1ccc(NC(=O)[C@@H](C)NC(=O)[C@@H]2Cc3ccccc3CN2)cc1	-25.5%	5.6%	-2.0%	.
COc1ccc(C2/C=C\CN(S(=O)(=O)c3cccs3)CC(=O)N2Cc2ccc(F)cc2)cc1 (stereo not given)	13.2%	0.6%	-6.1%	-4.7
c1ccc(-c2nc3cc4ccccc4cc3[nH]2)nc1	13.7%	-20.7%	6.6%	3.9
CCN(CC)C(=O)CSc1nc(O)c(Cc2ccccc2)c(=O)n1-c1ccccc1	1.2%	5.8%	1.6%	-14.0
COc1ccc(C(CNC(=O)COc2ccccc2-c2ccccc2)N2CCOCC2)cc1 (stereo not given)	9.9%	0.7%	7.1%	5.5
CC[C@]12c3[nH]c4ccc(OC)cc4c3CCN1C(=O)C(CC(=O)NCCCn1ccnc1)C[C@@H]2C(=O)N1CCN(C(=O)c2ccco2)CC1 (stereo not given in full)	.	17.0%	4.3%	.
Cc1nnc(N(C)C(=O)c2ccccn2)s1	0.5%	16.6%	-0.6%	6.1
Cn1c(=O)cc(SCC(=O)Nc2ccccn2)c2ccccc21	-4.5%	40.0%	1.1%	8.3
C=CCc1cc(OC)ccc1OCC(O)CN1CCN(c2ccc(OC)cc2)CC1 (stereo not given)	4.1%&0.1%	-16.4%&-8.3%	-1.8%&-3.4%	1.2&-24.6
Nc1c(S(=O)(=O)O)cc(NC(=O)c2ccccc2)c2c1C(=O)c1ccccc1C2=O	6.3%	3.9%	-0.3%	.
CCc1cc(=O)[nH]c(SCC(=O)Nc2cc(C)on2)n1	.	21.7%	0.5%	.
C=CCN1CN(S(=O)(=O)c2cccc(Cl)c2)c2nc3ccccc3nc21	-4.9%	-3.2%	?	.

Bioassay records as filed in PubChem BioAssay.
